TRPML1 inh: qHTS for Inhibitors of the Human Mucolipin Transient Receptor Potential 1 (TRPML1); TRPML1-inducible cells, Ca2+ dye fluorescence, FDSS; active compounds read low; inhibition of EC80 agonist-evoked calcium signal; Mucolipin-1 (Homo sapiens), Q9GZU1; AID 624415, 2012; activity change, negative = inhibition, % (concentration not given with the values); 390,000 tested, 0.02% active; in the data active means activity change below about -50%; inconclusive means about -30% to -50%; inactive means above about -30%;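 note: stimulus is agonist 54-4 at its EC80 concentration; % is set by controls: 0 for no effect and ±100 for the full control effect; the text of the record puts the active cut at -80%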
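TRPML1-DL cells, Tet-induced overnight (~16 h, 37 °C) at 1,500 cells/well, were loaded with Ca8 no-wash dye plus quencher for 45-90 min at room temperature. Compounds were pinned during FDSS kinetic reading; agonist 54-4 at EC80 (4 uM final) then added.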
Six1-Eya2 inh: qHTS Assay for Inhibitors of the Six1/Eya2 Interaction | AlphaScreen GST-Six1/His-Eya2 binding, biochemical; active compounds read low; control for the full effect not named in the record | activity change, % (test concentration not listed) | 360,000 tested, 0.56% active; in the data active = activity change below about -65%; inconclusive = about -30% to -65%; inactive = above about -30%; note: % is set by controls: 0 for no effect and ±100 for the full control effect
Target sequence (O00167 whole entry, looked up): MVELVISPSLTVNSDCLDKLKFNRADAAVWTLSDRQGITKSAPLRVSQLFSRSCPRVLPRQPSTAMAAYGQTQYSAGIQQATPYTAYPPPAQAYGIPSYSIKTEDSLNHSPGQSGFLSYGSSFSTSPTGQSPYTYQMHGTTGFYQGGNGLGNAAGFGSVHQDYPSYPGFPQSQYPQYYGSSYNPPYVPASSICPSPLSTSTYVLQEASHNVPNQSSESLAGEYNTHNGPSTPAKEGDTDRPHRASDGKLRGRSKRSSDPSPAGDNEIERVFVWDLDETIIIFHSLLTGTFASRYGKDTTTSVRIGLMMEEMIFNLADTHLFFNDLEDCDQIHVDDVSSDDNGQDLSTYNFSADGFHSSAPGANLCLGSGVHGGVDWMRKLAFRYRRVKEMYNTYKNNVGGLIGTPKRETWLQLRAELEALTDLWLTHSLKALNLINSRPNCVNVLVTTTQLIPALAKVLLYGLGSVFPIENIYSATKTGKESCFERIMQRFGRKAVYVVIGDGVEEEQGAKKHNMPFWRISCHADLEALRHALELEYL
Target sequence (Q15475 whole entry, looked up): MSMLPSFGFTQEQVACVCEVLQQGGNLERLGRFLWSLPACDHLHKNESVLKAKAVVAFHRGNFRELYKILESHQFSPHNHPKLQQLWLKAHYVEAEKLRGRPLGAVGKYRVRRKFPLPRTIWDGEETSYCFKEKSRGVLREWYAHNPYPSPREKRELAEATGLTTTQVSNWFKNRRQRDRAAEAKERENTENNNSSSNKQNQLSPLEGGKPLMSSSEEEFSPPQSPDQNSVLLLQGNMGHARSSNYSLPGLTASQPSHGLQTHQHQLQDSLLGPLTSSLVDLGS
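Homogeneous AlphaScreen proximity assay pairing GST-Six1 with His-tagged Eya2 (added as 5X mix: 250 nM and 500 nM) in 50 mM Tris pH 8.0, 300 mM NaCl, 1 mM TCEP. Glutathione donor and nickel acceptor beads; 1 h, 37 °C, dark.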
TRPML1 ag: qHTS for Agonists of the Human Mucolipin Transient Receptor Potential 1 (TRPML1) | Mucolipin-1 (Homo sapiens), Q9GZU1 | TRPML1-expressing cells, Ca2+ dye fluorescence, FDSS; host cell line not named in the record; reference of the full effect not given here | activation, % (test concentration not listed) | 410,000 tested, 0.12% active | AID 624414, 2012; in the data active = activation above about 50%; inconclusive = about 30% to 50%; inactive = below about 30%; note: 0% is about no effect; the text of the record puts the active cut at 80%
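Agonist activity was taken from a 110 s kinetic Ca2+ dye read on the FDSS after pinning compounds onto TRPML1-DL cells. The cells were seeded at 1,500/well with Tet inducer, incubated about 16 h, then dye-loaded at room temperature.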
PINK1 modulator: A Quantitative High throughput Screen to Identify Chemical Modulators of PINK1 Expression | PINK1 immunofluorescence, high-content cytometry, 24 h | AID 624263, 2012 | Potency, µM (series often up to 76.6 µM), for inactives: at the highest dose activation (PINK1 increase), hits mostly activators | 410,000 tested, 0.2% active; active = well fitted activation curve with a large enough effect; inconclusive = small, poorly fitted or top-dose-only effect; inactive = flat fitted curve, though single readings scatter; cell line not stated here;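 note: potency is the fitted concentration of half-maximal effect; % of control where 0% means no effect; nearly all actives have a fitted effect of over 65% in size; a mitochondrial uncoupler was the plate control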
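A stable cell line was treated with compounds at 5 concentrations for 24 hours, with CCCP as control. PINK1 levels and mitochondrial localization were measured by immunofluorescence with mitochondrial, cell and nuclear markers after fixation, read by laser-scanning cytometry.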
D2 ag: Beta-Arrestin HTS for Positive Allosteric Modulators of the Human D2 Dopamine Receptor: Agonists. 360,000 tested, 0.084% active. AID 624465, 2012. D(2) dopamine receptor (Homo sapiens), P14416. activation, % (test concentration not listed). DiscoveRx PathHunter D2 beta-arrestin, luminescence, 90 min; 100% = 57 uM dopamine signal; in the data active = activation above about 40%; inconclusive = about 15% to 40%; inactive = below about 15%; note: compound concentration not given in the record; the text of the record calls up to 30% inactive
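DiscoveRx PathHunter D2 beta-arrestin cells (2,100/well) attached overnight, then compound-stimulated 90 min at 37 C in HBSS/10 mM HEPES/0.1% Tween-20 buffer; beta-galactosidase complementation read by luminescence after 1 h at ambient temperature. Dopamine 57 uM final (EC100) as control.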
CtBP-E1A inh: qHTS Assay for Inhibitors of the CtBP/E1A Interaction | AlphaScreen GST-E1A/His-CtBP binding, 1536-well; active compounds read low; control for the full effect not named in the record | activity change, % (test concentration not listed) | 340,000 tested, 0.49% active | AID 651724, 2012; in the data active means activity change below about -65%; inconclusive means about -30% to -65%; inactive means above about -30%; note: % is set by controls: 0 for no effect and ±100 for the full control effect
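Homogeneous bead-based format: GST-tagged E1A captured on glutathione donor beads, His-tagged CtBP on nickel acceptor beads; compounds precede bead addition by 2 h at 37 °C.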
* hit, by the source's call; ? = inconclusive; nt = not tested or not shown; [ ] = remark or other dose. Not a hit list; any-hit rate near 1%.

Value order – TRPML1 inh	Six1-Eya2 inh	TRPML1 ag	PINK1 modulator	D2 ag	CtBP-E1A inh
O=S(=O)(Nc1ccc2c(c1)OCO2)c1ccc(Cl)cc1F
→ 3	-1	0.9	0.6%	2.0	-2
COc1ccccc1N(CC(=O)NC1CCCC1)C(=O)c1csnn1
→ 0	4	0.2	-0.6%	0.9	-2
Fc1ccc(CSc2ncnc3scc(-c4ccccc4)c23)cc1
→ -9	31	4.1	1.5%	-9.7	40
O=C(C1=COCCO1)N(Cc1nnc(-c2ccc(Cl)cc2)o1)C1CC1
→ -15	7	0.3	0.9%	-3.8	0
O=C(NCc1ccccn1)NC12CC3CC(CC(C3)C1)C2
→ -10	-1	-0.2	-2.2%	2.3	3
C[C@H]1CC[C@@]2(O[C@@H](CCO)C[C@@H](O)[C@@H]2O)O1
→ -6	2	-0.2	0.2%	-2.8	-17
C/C(=N\NC(=O)c1ccncc1)c1cc2ccccc2oc1=O
→ -6	-80*	-0.3	-1.1%	-1.2	-5
COC(=O)c1cc(OC)c(OC)cc1NC(=O)c1c(-c2ccccc2)noc1C
→ 2	-12	0.8	3.8%[38.3 µM]	2.4	-14
CC1CC(N(C(=O)c2ccco2)c2ccccc2)c2ccccc2N1C(=O)c1ccco1 (stereo unspecified)
→ -8	-4	2.8	-5.6%	-4.2	-25
NS(=O)(=O)c1ccc(CNC(=O)NC23CC4CC(CC(C4)C2)C3)cc1
→ 32	0	-0.1	23%[38.3 µM]	-2.0	6
O=C(Nc1ccccc1)C(Cl)C(=O)c1ccccc1 (stereo unspecified)
→ nt	1	nt	0.6%	-20	nt
CCc1ccc(NC(=O)C(CC)Sc2nc3ccsc3c(=O)n2CCC(=O)O)cc1 (stereo unspecified)
→ 0	0	0.0	-0.7%	-5.4	-10
Cc1ccc(C(=O)c2cn(Cc3ccc(F)cc3)c3nc(C)ccc3c2=O)cc1
→ -3	nt	3.4	0.2%	nt	nt
COCCNC(=O)c1cc2c(Br)ccc(Br)c2nc1N
→ nt	1	-0.3	2.7%	nt	0
CN(C)N1C(N)=C(C#N)C(c2ccccc2F)C2=C1CC(C)(C)CC2=O (stereo unspecified)
→ 2	-4	0.0	0.6%	1.7	nt
C#CCOCCOCCOCCNc1nc(N2CCN(C(=O)[C@H](CCC(=O)O)n3cc(C(N)[C@H](C)CC)nn3)CC2)nc(N2CCN(C(=O)[C@H](Cc3ccc(O)cc3)n3cc(C(N)[C@H](C)CC)nn3)CC2)n1 (stereo partly specified)
→ 24	-20	-0.4	1.2%	-3.2	-13
C=CCn1c(SCC(=O)NC2CC2)nnc1C1CC1
→ -15	3	-0.7	2.6%	-1.3	3
CCc1ccc(CNC(=O)CCCn2nc(C)n3ccnc3c2=O)cc1
→ -9	-1	-0.8	-0.5%	-0.5	-3
CC(C)c1ccc(CCNC(=O)CSC(=S)N2CCCC2)cc1
→ 23	11	2.7	-0.4%	-7.2	0
COc1cccc(NC(=O)CN(C)C(=O)c2ccc(S(=O)(=O)Nc3ccccc3F)cc2)c1
→ -4	-21	-0.8	3.9%	-8.5	-5
CCS(=O)(=O)c1nn2c(N)c(/C=C3/C=CC(=O)C(OC)=C3)c(=O)nc2s1
→ 1	-18	2.7	-0.6%	-1.7	-21
Cc1oc(C(C)(C)C)cc1-c1cc(NC(=O)c2ccc([N+](=O)[O-])cc2)n[nH]1
→ 10	11	0.3	10%	9.5	0
COC(=O)c1sccc1NC(=O)Nc1ccc(F)cc1F
→ 12	-3	3.4	-0.9%	-1.9	-4
CC(C(c1cccs1)c1c(N)n(C)c(=O)n(C)c1=O)[N+](=O)[O-] (stereo unspecified)
→ -6	11	0.5	-0.5%	1.8	nt
Cc1ccc(NCCCn2cnc3c(OCc4ccccc4)ncnc32)cc1C
→ -5	?	-0.3	-1.1%	-1.3	?
Cc1ccc(-c2nc3nc(C)cc(N4CCN(c5cccc(C)c5C)CC4)n3n2)cc1
→ 4	nt	-0.2	2.7%	nt	nt
COc1ccc(C(=O)CN2C(=O)N(c3ccc(C(C)=O)cc3)S(=O)(=O)c3ccccc32)cc1
→ -13	nt	0.0	2.6%	nt	nt
CSc1ccc(CN2CCC(n3nccc3NC(=O)c3ccccc3C)CC2)cc1
→ 1	-5	0.1	1.2%	-1.4	-7
O=S1(=O)N=C(N2CCN(c3ccc(F)cc3)CC2)c2ccccc21
→ -7	1	-0.1	7.4%[38.3 µM]	-1.7	5
O=C(NCc1cccnc1)c1cccc(Cl)c1
→ 14	-5	-0.1	0.8%	-2.0	-3
CC(C(=O)NCC1CCCCC1)N(C)Cc1ccc(Cl)cc1 (stereo unspecified)
→ 20	2	1.0	6.9%	-0.5	4
Cc1ccc(C)c(SCc2nc3sc(C(=O)O)c(C)c3c(=O)[nH]2)c1
→ 31	-4	0.1	0.8%	-0.8	3
O=[N+]([O-])c1cc(Br)c(OCc2nnc(-c3ccccc3)o2)c(Br)c1
→ -8	-7	-1.3	6.7%	9.5	nt
O=[N+]([O-])c1cc(-c2nc(-c3ccccc3)no2)ccc1NCCc1ccccc1
→ 13	nt	-0.7	2.5%	nt	nt
COC(=O)CNC(=O)CSc1nnc(-c2ccc(OC)cc2)n1CC(C)C
→ 15	-1	-0.3	7.0%[38.3 µM]	-1.4	5
O=C(N=C1c2ccccc2CN1c1cccc(Cl)c1)c1cccnc1
→ 1	1	0.6	0.0%	1.6	15
O=C(OCc1cnc(Cl)s1)c1cccc(Cl)c1Cl
→ 2	35	-0.6	2.6%	-3.4	36
Cc1cc(NC(=O)CSCC(=O)NC(C)c2ccccc2)no1 (stereo unspecified)
→ -2	-3	-0.4	-1.4%	2.3	0
CC1CCC(Nc2nnnn2-c2ccccc2)CC1 (stereo unspecified)
→ -14	0	-0.5	2.6%[38.3 µM]	-2.6	4
COc1cccc(C(=O)O/N=C(\N)c2ccc([N+](=O)[O-])cc2)c1OC
→ 23	-7	-0.3	6.8%	12	-9
CCN=c1sc(C(=O)NCCc2ccccc2)cc(=O)n1CC
→ -9	0	0.0	7.6%	-4.7	0
Cc1ccc(-n2nnnc2SCC(=O)c2ccc3c(c2)NC(=O)CO3)c(C)c1
→ 12	-2	-0.3	2.9%[38.3 µM]	-0.1	0
Cn1c(/C=C/c2ccccc2)nc2ccccc2c1=O
→ 0	1	-1.8	1.7%	0.8	8
CCN(CC)CCCCN1c2ccccc2Sc2ccccc21
→ 9	-15	2.8	-3.2%	-4.6	-28
Cc1ccc(C2NC(=O)CCC2[N+](=O)[O-])cc1 (stereo unspecified)
→ -1	4	0.4	3.0%	-3.1	nt
COC(=O)c1ccc(NC(=O)c2cc[n+]([O-])cc2)cc1
→ -6	10	-0.3	0.0%	0.3	0
O=C(OCc1ccccc1)N1CCC2CC1c1cc(-c3cc4ccccc4o3)ccc12 (stereo unspecified)
→ -3	7	0.3	13%	-14	4
CS(=O)(=O)N1CCN(CC(=O)NC2CCCCC2)CC1
→ 19	7	1.0	1.4%	-4.4	1
O=C(CN1C(=O)NC(Cc2ccccc2)C1=O)Nc1ccccc1 (stereo unspecified)
→ 6	1	-0.4	-1.7%	-0.6	1
COc1cc(OC)cc(C(=O)Nc2cc(-c3nc4ccccc4[nH]3)ccc2C)c1
→ 23	nt	4.1	2.6%	nt	nt
COCCN(C(=O)c1ccccc1Oc1ccccc1)c1c(N)n(CC(C)C)c(=O)[nH]c1=O
→ 9	0	0.5	-0.4%	-1.7	-4
Cc1nn(-c2ccccc2)c(N)c1Sc1ccc([N+](=O)[O-])cc1
→ 17	-11	0.8	-1.4%	0.4	-9
Cc1ccccc1/C=N/NC(=O)Cn1nnc(N)n1
→ 3	3	-0.2	-1.7%	-2.0	4
Cc1ccc(C(=O)c2ccc([N+](=O)[O-])cc2)cc1
→ 2	-28	0.2	nt	0.4	10
CN1C(=O)N(C)c2ccc(C=O)c3cccc1c23
→ -2	?	0.4	-3.7%	2.4	-17
COCCNC(=O)CN(C(=O)CCC(=O)Nc1ccccn1)c1ccc(C)cc1
→ -9	3	-0.1	0.0%	-2.7	-7
CC1CN(C(=O)CSc2nnc(CNC(=O)c3ccc(S(=O)(=O)N(C)C)cc3)o2)CC(C)O1 (stereo unspecified)
→ 12	0	0.2	1.1%	0.0	3
Cc1ccc(NC(=O)C(C)Oc2ccccc2)cc1S(=O)(=O)N1CCCCCC1 (stereo unspecified)
→ -2	0	1.8	1.3%	1.3	nt
CC(=O)Nc1ccc(S(=O)(=O)N2CCSC2c2ccccc2Cl)cc1 (stereo unspecified)
→ -4	0	0.0	0.2%	-0.5	-3
Cc1c(Cl)cnc(NC(=O)COC(=O)c2ccncc2)c1Cl
→ -11	-6	1.0	1.4%	-3.5	16
O=C(COc1ccc(F)cc1F)N1CCCCCCC1
→ -5	-5	0.5	0.0%	3.1	4
CCCCN(Cc1cccs1)S(=O)(=O)c1csc(C(N)=O)c1
→ -11	3	2.6	-1.0%	8.7	nt

In a second layout: 2 of the compounds above
Cc1ccccc1/C=N/NC(=O)Cn1nnc(N)n1
  TRPML1 inh: 3
  Six1-Eya2 inh: 3
  TRPML1 ag: -0.2
  PINK1 modulator: -1.7%
  D2 ag: -2.0
  CtBP-E1A inh: 4
Cn1c(/C=C/c2ccccc2)nc2ccccc2c1=O
  TRPML1 inh: 0
  Six1-Eya2 inh: 1
  TRPML1 ag: -1.8
  PINK1 modulator: 1.7%
  D2 ag: 0.8
  CtBP-E1A inh: 8
